# GIV-Gai inh = blocks GIV peptide binding to rat Galpha-i3 | percent of control (FP), % (no concentration beside the values) | Galpha-i3/FITC-GIV peptide fluorescence polarization, 90 min; stronger effect = lower value; scaled: aluminum fluoride 0%, vehicle 100% | P08753 | AID 1224905 | hit rate 0.42% among 210,000;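 active means replicate mean at 85% of control or lower, very high polarization wells dropped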;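 further: wells of about 15 µL received 100 nL stock; the first replicate is given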
# Target sequence (P08753 whole entry, looked up): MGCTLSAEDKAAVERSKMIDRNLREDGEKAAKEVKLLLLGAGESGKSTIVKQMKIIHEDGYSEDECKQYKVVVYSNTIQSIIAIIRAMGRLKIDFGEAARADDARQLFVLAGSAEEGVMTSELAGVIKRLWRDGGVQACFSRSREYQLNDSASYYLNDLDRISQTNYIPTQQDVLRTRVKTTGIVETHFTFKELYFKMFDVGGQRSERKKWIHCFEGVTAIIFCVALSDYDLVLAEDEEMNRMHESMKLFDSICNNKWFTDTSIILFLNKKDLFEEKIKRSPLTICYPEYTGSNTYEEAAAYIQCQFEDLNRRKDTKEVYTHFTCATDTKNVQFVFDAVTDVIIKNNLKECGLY
# * marks the source's active call; other numbers are inactive results.
SMILES,GIV-Gai inh
Cc1sc(-c2cc(C(F)(F)F)on2)cc1S(=O)(=O)N1CCN(c2cccc(Cl)c2)CC1,101
O=C(COc1ccc(Cl)cc1Cl)N1CCN(C2=NS(=O)(=O)c3ccccc32)CC1,103
CCC(C)(C)NS(=O)(=O)c1cc(-c2nc(C(C)(C)C)cs2)cs1,100
COc1ccccc1OCCSc1nnc(-c2ccc3c(c2)OCCCO3)n1C,103
O=C1CCCN1c1ccc(Cn2nc3c(S(=O)(=O)N4CCCC4)cccn3c2=O)cc1,100
COc1cc(-c2cc(C)no2)ccc1S(=O)(=O)Nc1ccc(Cl)cc1C,107
CC1(C)CC(=O)C2=C(C1)N(c1ccc(O)cc1)C(=O)CC2c1ccc([N+](=O)[O-])cc1 (configuration not stated),104
O=C(c1cc(NS(=O)(=O)c2ccc3c(c2)CCCC3)ccc1N1CCNCC1)N1CCOCC1,106
Cn1nnc2c(N(Cc3ccccc3)Cc3ccccc3)ncnc21,104
O=C1Nc2c(S(=O)(=O)Nc3ccccc3)cc(S(=O)(=O)Nc3ccccc3)c3cccc1c23,112
c1ccc(-c2ccc(-c3[nH]c(-c4ccccc4)nc3-c3ccccc3)cc2)cc1,111
CCOC(=O)c1cnc2c(C)cc(C)cc2c1Nc1cccc(C)c1C,102
CCCCNC(=O)C1CCN(c2ncccc2-c2nc(-c3cccc(C)c3)no2)CC1,104
CC(C)C(=O)N1CC(C)(C)c2cc(S(=O)(=O)Nc3ccc(S(N)(=O)=O)cc3)ccc21,104
CC1(C)C(=O)NCCN1C(=O)NC1CCCC1,103

# Fetched by structure from the entries so far, 4 records:
SMILES,GIV-Gai inh
O=C(COc1ccc(Cl)cc1Cl)N1CCN(C2=NS(=O)(=O)c3ccccc32)CC1,103
c1ccc(-c2ccc(-c3[nH]c(-c4ccccc4)nc3-c3ccccc3)cc2)cc1,111
CC(C)C(=O)N1CC(C)(C)c2cc(S(=O)(=O)Nc3ccc(S(N)(=O)=O)cc3)ccc21,104
CCOC(=O)c1cnc2c(C)cc(C)cc2c1Nc1cccc(C)c1C,102

# New compounds follow
SMILES,GIV-Gai inh
Cc1ccccc1NC(=O)C1CCCN(C(=O)C2Sc3ccccc3NC2=O)C1 (configuration not stated),103
CCc1noc(-c2cccn2CC)n1,99
O=C(Nc1ccc(F)cc1)c1ccc2c(=O)n(CC3CCCO3)c(=S)[nH]c2c1 (configuration not stated),106
CC(C)N1C(=O)CCC1C(=O)NCc1ccc2c(c1)OCO2 (configuration not stated),97
CN(CCCNC(=O)C1CCN(c2nn3c(=O)c4c(nc3s2)CCCC4)CC1)C1CCCCC1,99
CC(C)CN1CCC(N2CCC(C(C)O)CC2)CC1 (configuration not stated),98
CCN(CC)c1ccc(CNC(=O)c2ccc(Nc3ncc(-c4cccc(F)c4)cn3)cc2)cc1,105
CCOC(=O)c1cc(-c2ccc(F)cc2)n(CC(=O)NCc2cccnc2)c1C,99
CCOC(=O)C1=C(C)N=c2s/c(=C/c3cc4c(cc3Cl)OCO4)c(=O)n2C1c1cc(OC)ccc1OC (configuration not stated),108
O=C1CN(Cc2ccc(F)cc2Cl)S(=O)(=O)c2ccccc2N1Cc1ccccc1F,106
CCC(CC)C(=O)N1CCC(C(=O)NCc2csc(-c3cccs3)n2)CC1,105
COC(=O)C1=C(N)n2c(s/c(=C\c3cccnc3)c2=O)=C(C(=O)OC)C1c1cccnc1 (configuration not stated),118
Cc1ccc(-c2nc3cc(C(F)(F)F)cc(Cl)c3nc2-c2ccc(C)cc2)cc1,103
Cn1c(CN2CCN(C(=O)Nc3ccccc3)CC2)nc2cc(C(=O)N3CCCC3)ccc21,104
COc1ccc(-c2nc(-c3c4ccccc4c(Cl)c4ccccc34)[nH]c2-c2ccc(OC)cc2)cc1,152
CC(=O)c1cccc(N2C(=O)/C(=C/c3ccc(Cl)cc3)C=C2c2ccccc2)c1,131
Cc1ccc(C)c(Nc2nc3nonc3n3cnnc23)c1,100
O=C(NCc1ccccc1)c1ccc(C2SCC(=O)N2Cc2ccccc2)cc1 (configuration not stated),104
CCOc1ccc(C(=O)Nc2c3c(nn2-c2ccc([N+](=O)[O-])cc2)CS(=O)(=O)C3)cc1OCC,98
Cc1[nH]n(-c2ccc([N+](=O)[O-])cc2)c(=O)c1C=NCCN1CCN(C(=O)c2ccc(F)cc2)CC1,104
Cc1ccc(-n2ccnc2SCc2nc(-c3ccc(Cl)cc3)no2)cc1,109
O=[N+]([O-])c1c(Cl)cc(O)c2c1C1C=CCC1C(c1ccc(Br)cc1)N2 (configuration not stated),106
O=C(NNc1ccccc1)C(O)(c1cccc(C(F)(F)F)c1)c1cccc(C(F)(F)F)c1,109
Cc1cc(C2CCCN2C(=O)c2cc(-c3ccc(Cl)cc3)on2)no1 (configuration not stated),106
C=CCn1c(SCC(N)=O)nc2c(c1=O)C1(CCCCC1)Cc1ccccc1-2,109
Cn1nccc1C(=O)Nc1cc(Sc2nc3ccccc3s2)cc([N+](=O)[O-])c1,105
COc1ccc(NC(=O)c2c(C)sc3c(C)c(C)[nH]c23)cc1,104
Cc1ccc(C(=O)NCc2ccc3c(c2)OCO3)cc1NC(=O)c1nsc2ccccc12,110
COc1ccc(C2(C(N)=O)CCCC2)cc1OC,105
O=C(Nc1ccccc1)c1sc2nncc(=O)n2c1C(=O)O,119
O=C(CSc1nc2ccccc2n1S(=O)(=O)c1ccccc1)Nc1ccc(Br)cc1F,113
COc1ccc(-c2noc(CSc3nc4[nH]ncc4c(=O)n3-c3ccc(OC)c(Cl)c3)n2)cc1,103
COc1cc(-n2cnc3cc(C(=O)NCc4cccnc4)ccc32)cc(OC)c1OC,113
COc1ccc(-c2noc(-c3nn(-c4ccc(C)c(C)c4)ccc3=O)n2)cc1,102
CCOc1cc(C2C(C#N)=C(N)Oc3n[nH]c(C)c32)ccc1OCc1cccc(F)c1 (configuration not stated),104
Cc1[nH]nc(-c2c(C)sc(C)c2S(=O)(=O)NCC(C)c2ccccc2)c1C (configuration not stated),99
CCc1nnc(-c2csc(S(=O)(=O)N3CCC(C)CC3)c2)o1,100
Cc1ccc(-c2noc3ncnc(N4CCOCC4)c23)cc1,104
CC1CCN(CCCNC(=O)c2ccc(Cn3c(=S)[nH]c4ccc(Br)cc4c3=O)cc2)CC1,107
Cc1ccc([C@]2(O)NC([S-])=C(C#N)[C@H](c3ccc(F)cc3)[C@H]2[n+]2ccccc2)cc1,116
Cc1cc(-c2c(C)sc(C)c2S(=O)(=O)N2CC=C(c3ccccc3)CC2)n[nH]1,96
Cc1cc(C(F)(F)F)c(C#N)c(SCC(=O)Nc2ccccc2[N+](=O)[O-])n1,112
O=C(NCc1ccc(F)cc1)c1cc(S(=O)(=O)N2CCOCC2)ccc1Sc1ccc(Br)cc1,96
C1=C(CCNc2ncccc2-c2nnc(-c3ccccc3)o2)CCCC1,103
O=C1NCCCn2nc(C3CCN(C(=O)Nc4ccc(F)cc4)CC3)cc21,104

# The last 6 entries of the part before are carried over, then new ones follow.
SMILES,GIV-Gai inh
Cc1ccc([C@]2(O)NC([S-])=C(C#N)[C@H](c3ccc(F)cc3)[C@H]2[n+]2ccccc2)cc1,116
Cc1cc(-c2c(C)sc(C)c2S(=O)(=O)N2CC=C(c3ccccc3)CC2)n[nH]1,96
Cc1cc(C(F)(F)F)c(C#N)c(SCC(=O)Nc2ccccc2[N+](=O)[O-])n1,112
O=C(NCc1ccc(F)cc1)c1cc(S(=O)(=O)N2CCOCC2)ccc1Sc1ccc(Br)cc1,96
C1=C(CCNc2ncccc2-c2nnc(-c3ccccc3)o2)CCCC1,103
O=C1NCCCn2nc(C3CCN(C(=O)Nc4ccc(F)cc4)CC3)cc21,104
O=C(C1CCN(c2nccc3c2ccn3Cc2ccccc2)CC1)N1CCN(c2ccccc2F)CC1,115
Cc1sc(C)c(S(=O)(=O)Nc2ccc(F)cc2)c1-c1cc(C(F)(F)F)on1,99
Cc1ccccc1CN1CCCN(CC(=O)NC(C)CCc2ccccc2)S1(=O)=O (configuration not stated),105
Cc1cccn2c(=O)c(/C=C3\SC(=S)N(Cc4ccccc4)C3=O)c(NCCN3CCOCC3)nc12,133
Cc1nc(-c2cc(S(=O)(=O)N3CCN(c4ccc(F)cc4)CC3)c(C)s2)sc1C,98
COc1ccc(CCNC(=O)CCc2nc(-c3ccc(N4CCCC4)cc3)no2)cc1OC,98
Cc1cccc(C2Nc3cccc4cccc(c34)N2)c1,117
CC(C)CCOc1ccc(-c2nn(-c3ccccc3)cc2/C=c2\sc3nc(=O)c(Cc4ccccc4)nn3c2=O)cc1,132
CCOc1ccc(NC(=O)CSc2nc3cc(C(=O)NCc4ccco4)ccc3c(=O)n2Cc2ccco2)cc1,112
COc1ccc(S(=O)(=O)CCC(=O)N2CCCC2c2nc(-c3ccc(Cl)cc3)no2)cc1 (configuration not stated),103
O=C(NN1S(=O)(=O)c2ccccc2S1(=O)=O)c1cc(-c2ccccc2)n[nH]1,113
O=C(Nc1ccc(C2(C(=O)NCCCc3ccccc3)CC2)cc1)c1ccc(Br)cc1,102
N#CC1=C([S-])N[C@@](O)(c2ccccc2)[C@H]([n+]2ccc3ccccc3c2)[C@H]1c1ccc(F)cc1,109
COc1ccc(C2CC(C(F)(F)F)n3nc(C(=O)N4CCN(c5ccccc5)CC4)cc3N2)cc1OC (configuration not stated),117
COc1ccccc1NC(=O)Cn1cnc2c(sc3ncccc32)c1=O,98
Fc1ccc(Nc2nc(N3CCOCC3)nc3c2cnn3-c2ccccc2)cc1,98
O=C(NCCCN1CCOCC1)c1ccc2c(c1)[nH]c(=S)n1c3ccccc3nc21,105
CCOc1ccccc1C1CC(=O)NC(SCC(=O)Nc2ccc(Oc3ccccc3)cc2)=C1C#N (configuration not stated),107
Cc1ccc(-c2ccc(N3CCCC3)nn2)cc1S(=O)(=O)N1CCCC1,102
O=c1/c(=C/c2ccc(Br)cc2)sc2nnc(-c3ccccc3Cl)n12,99
CC(C)NC(=O)C1CCCN(C(=O)c2ccc(NS(=O)(=O)c3ccc4c(c3)CCCC4)cc2)C1 (configuration not stated),108
CN(C(=O)Cn1nc(C(=O)N2CCCC2)ccc1=O)C1CCCCC1,103
COc1ccc(C(=O)Nc2cc(-c3nc4cc(C(C)C)ccc4o3)ccc2Cl)cc1[N+](=O)[O-],97
O=C(CSc1nc2ccccc2c(=O)n1CCC(=O)N1CCN(c2ccccc2)CC1)NCc1ccccc1,106
Cc1nn(-c2ccccc2)cc1C(=O)N1CCC(CC(=O)NCCc2c[nH]c3ccccc23)CC1,102
COc1ccc(CC(=O)Nc2ccc(SCc3nnc(-c4ccccc4)o3)cc2)cc1,99
Cc1cccc2sc(N3CCN(C(=O)c4ccc5c(c4)OCCO5)CC3)nc12,102
CCCCNc1nc(SCc2cc(=O)n3cc(Cl)ccc3n2)nc2ccccc12,110
O=S(=O)(NC1c2cccc3cccc(c23)C1NCc1ccco1)c1ccc(Cl)cc1 (configuration not stated),116
CC(=O)c1oc2c(C)c3oc(=O)cc(C)c3cc2c1C,107
CCC(=O)N1c2cc(C(c3ccccc3)(c3ccccc3)c3ccccc3)ccc2C(C)(c2ccc(C)cc2)CC1(C)C (configuration not stated),107
O=C(c1noc2ccc(S(=O)(=O)N3CCn4c3nc3ccccc34)cc12)N1CCCC1,100
O=C(CN1CCN(C(=O)c2sc3ncccc3c2-n2cccc2)CC1)N1CCCCC1,104
O=S(=O)(Nc1cccc(-c2nc(-c3cccc(Br)c3)co2)c1)c1ccccc1,105
COc1ccc([N+](=O)[O-])cc1C1=N/C(=C/c2cc(OC)c(OC)c(OC)c2)C(=O)O1,109
CCOC(=O)N1CCC2(CC1)N=C(c1ccc3c(c1)OCO3)CC(c1ccccc1O)N2 (configuration not stated),102
COc1cc(C2C(C#N)=C(N)Oc3n[nH]c(-c4ccncc4)c32)ccc1OCC(N)=O (configuration not stated),104
COc1cccc(C2C(C#N)=C(N)Oc3n[nH]c(C)c32)c1OCc1c(F)cccc1Cl (configuration not stated),101
CC1CCCCC1NC(=O)c1ccc2c(c1)[nH]c(=S)n1c3ccccc3nc21 (configuration not stated),111
N#CC1=C(SCC(=O)Nc2ccc(Cl)c(Cl)c2)NC(=O)CC1c1cccs1 (configuration not stated),103
O=S(=O)(NCCc1cccs1)c1ccc(-c2cnc(C3CCCC3)o2)s1,104
Cc1ccccc1C(=O)N(CCCN1CCCC1=O)CCS(=O)(=O)N1CCNCC1,106
CC(C)NC(=O)c1cc2c(n(-c3ccc(F)cc3)c1=O)CCCC2=O,105
CCOc1c(C(=O)OC)sc2ccc(NC(=O)Nc3cccc(OC)c3)cc12,100
CCOC(=O)C1=C(c2ccccc2)OC(N)=C(C#N)C1c1cccc(OC)c1 (configuration not stated),104
O=[N+]([O-])c1ccc(C2CC(c3ccccc3)=Nc3ccccc3N2)cc1 (configuration not stated),101
CCN(CCCNC(=O)c1ccc(Cn2c(=S)[nH]c3cc(C(=O)OC)ccc3c2=O)cc1)c1ccccc1,107
CCOc1cccc(C2Nc3ccc(Br)cc3[C@H]3OCCC[C@@H]23)c1OC (some centres not stated),98
O=C(O)c1cccc(N2C(=O)/C(=C/c3ccc(-c4ccc(Br)cc4)o3)C=C2c2ccccc2)c1,125
CCOc1ccc(-c2[nH]nc3c2C(c2ccc(F)cc2)C(C#N)=C(N)O3)c(OCC)c1 (configuration not stated),106
Cc1ccc(-c2nnc(-c3ccccc3)o2)cc1S(=O)(=O)N1CCOCC1,108
COc1ccc(N2C(N)=C(C#N)C(c3ccc(Br)cc3)C3=C2CCCC3=O)cc1 (configuration not stated),110
COc1ccc(-c2ncc3c(=O)n(CC(=O)Nc4ccccc4OC)c(=O)n(C)c3n2)cc1,102
Cn1c(N2CCCC(C(=O)NC3CCCC3)C2)cc(=O)n(C)c1=O (configuration not stated),107
O=C(Cc1c(Sc2ccccc2)c2ccccc2n1Cc1ccccc1)Nc1ccccc1C(F)(F)F,107
CN1CCN(c2ncncc2N2CCC(C(=O)N3CCCC3)CC2)CC1,99

# Screening results deposited in PubChem BioAssay by ICCB-Longwood Screening Facility, Harvard Medical School.

# Not all compounds are listed, so the mix of outcomes need not match the whole.
